# From PubChem BioAssay
# VACV mCherry inh – inhibitors of vaccinia virus infection (mCherry reporter signal); Vaccinia virus mCherry reporter infection, fluorescence; about a quarter of the inactives have no number; actives 0.63% (n = 310,000); Potency, µM (series often up to 36.5 µM), inactives show top-dose activity change, negative = inhibition, usual class: inhibitors; active = well fitted inhibition curve with a large enough effect; inconclusive = small, poorly fitted or top-dose-only effect; inactive = no such curve, though single readings can be large or run the other way; tested in A549 cells; further: nearly all actives have a fitted effect of over 35% in size; inactives centre near -10
# Vaccinia Venus – inhibitors of vaccinia virus (Venus reporter); Vaccinia virus Venus reporter expression, fluorescence; Potency, µM (doses to about 36.5 µM), for inactives: top-dose activity change, negative = inhibition, actives largely listed as inhibitors; actives 0.46% (n = 330,000); AID 720580; active means well fitted inhibition curve with a large enough effect; inconclusive means small, poorly fitted or top-dose-only effect; inactive means no such curve, though single readings can be large or run the other way; tested in A549 cells; further: nearly all actives have a fitted effect of over 30% in size; inactives centre near -10
# Active calls of the source: *; i = inactive; u = inconclusive; x = no result given; & = joins results of further samples; [ ] = dose if it differs, or a comment. On the % scale 0 is the no-effect control and ±100 the full control effect; potency means the concentration at half of the fitted maximal effect. Compounds were not picked by outcome (roughly 0.88% active in at least one column).
smiles | Vaccinia Venus | VACV mCherry inh
CCOC(=O)N1CCN(S(=O)(=O)N2CCCC(C(=O)NC(C)c3ccccc3)C2)CC1 (stereo not drawn) | -10%[7.34 µM] | -1%[7.34 µM]
COc1ccc(C(=O)CCC(=O)Nc2cccnc2)cc1 | -7% | -2%
CCCCC(=O)Nc1ccc(C(=O)OCc2cc(=O)n3ccsc3n2)cc1 | -8% | -21%
Cn1c(SCC(=O)NCCc2ccccc2)nc2c([nH]c3ccccc32)c1=O | 6% | i
CC(=O)N(c1cccc(Br)c1)c1nc(C)cc(C)c1C#N | -9% | 0%
CCOC(=O)C1=C(COC(=O)c2cc(Br)c(Br)s2)NC(=O)NC1C (stereo not drawn) | -13% | -19%
CCC(=O)N1CCc2cc(Br)cc(S(=O)(=O)N3CCCC(C(=O)NCc4cccc(OC)c4)C3)c21 (stereo not drawn) | -7% | -7%
CCCOc1ccc(N/C=C/C(=O)c2ccc(OC)c(OC)c2)cc1 | -11% | -12%
CC1(C)CC2CC(C)(CN2S(=O)(=O)c2cccc(C(=O)OCC(=O)NC(N)=O)c2)C1 (stereo not drawn) | 1% | -16%
CC1CN(C(=O)CCC(=O)NC(C)c2ccccc2)c2cc(Cl)ccc2O1 (stereo not drawn) | -1% | -15%
Nc1nc(-c2ccc(Br)cc2)cs1 | -19% | -26%
COC(=O)C1=C(C(=O)OC)[C@@H]2Nc3ccccc3[C@@]23C[C@@H](C(=O)OC)N(C(C)=O)C3=N1 | 0% | -18%
COc1ccc([N+](=O)[O-])cc1/C=N/NC(=O)CNC(=O)C(c1ccccc1)c1ccccc1 | -7% | u
COc1ccc(C(C)(C)C)cc1NC(=O)COC(=O)CSCc1c(C)noc1C | -10% | -5%
O=c1c2ccccc2c(=O)n2n1Cc1ccccc1C2 | -22% | i
CC(C)(C)C1CCC(=NNC(=O)c2ccccc2-n2cccc2)CC1 (stereo not drawn) | -3% | -9%
COc1ccc(OC)c(NC(=O)C2=C(C)C(=O)OC23CCCCCC3)c1 | -4% | -11%
O=C(N/N=C/c1ccc(Cl)c([N+](=O)[O-])c1)c1cc(-c2ccc3c4c(cccc24)CC3)n[nH]1 | 2% | -22%
Nc1ncnc2c1ncn2[C@@H]1O[C@H](C(=O)N2CCCN(Cc3cccs3)CC2)[C@@H](O)[C@H]1O | -14% | 33%[activator]
COc1ccc(CCNC(=O)CN2C(=O)c3ccccc3S2(=O)=O)cc1OC | -12% | x
Cc1ccc(CN2CCN(CC(=O)N3CCC(C(N)=O)CC3)C2=O)cc1 | -8% | -11%
COc1ccc(CNC(=O)COc2ccc(S(=O)(=O)N3CCCCC3)cc2)cc1 | -17% | i
O=C(Nc1cccc(Cl)c1)OCCOC(=O)Nc1cccc(Cl)c1 | -13% | -9%
CCOC(=O)c1sc(NC(=O)c2ccccc2C(=O)O)c(C(=O)OCC)c1C | -6% | -28%
COC(=O)[C@]12CCCCC=C1N(CCC1=CCCCC1)C(=O)[C@H](CC(=O)NCc1ccc(OC)c(OC)c1)C2 | -14% | 13%
C/C(=N\NC(=O)c1ccccc1OCCOc1ccccc1)c1ccccc1F | -25% | u
CCn1c(C(=O)N2CCC(C(=O)NCCCOC)CC2)cc2sccc21 | 1% | 0%
S=c1[nH]nc(-c2ccccc2Cl)n1/N=C/C=C/c1ccco1 | -3% | i
Clc1cccc(Cl)c1-c1nnc2ccc(N3CCOCC3)nn12 | -19% | -11%
COc1cc(=O)n2c(c1C(=O)N(C)Cc1nonc1C)CCN(Cc1cc(C)ccc1C)CC2 | -7% | -14%
Cc1cccc(-n2cc3c(=O)n(C)c(=O)n(C)c3c2)c1 | -18% | i
Cc1ccc(NC(=O)Nc2sc3nc4n(c(=O)c3c2C)CCC(C)CC4)c(Cl)c1 (stereo not drawn) | -11% | -22%
Cc1ccc(-c2cc(C(F)F)n3ncc(C(=O)N4CCc5ccccc5C4)c3n2)cc1 | u | -29%
CCc1ccc(NC(=O)C(C)OC(=O)CC(NC(C)=O)c2ccccc2)cc1 (stereo not drawn) | -3% | -15%
Cc1ccc2c(c1)c1c(n2CC(O)Cn2c(C)nc3ccccc32)CCCC1 (stereo not drawn) | u | -16%
CC(=O)c1cc2c(cc1NC(=O)C1CC=CCC1C(=O)O)OCO2 (stereo not drawn) | -6% | -6%
O=C(NCCN1CCOCC1)C(=O)NCC1OCCN1S(=O)(=O)c1ccc(F)cc1 (stereo not drawn) | -11% | i
Cc1ccc(C(=O)c2cn(Cc3ccc(F)cc3)c3nc(C)ccc3c2=O)cc1 | -15% | -9%
O=[N+]([O-])c1ccc(OCCN2CCCCCC2)cc1 | -4% | u
Cn1c(SCc2nc3ccccc3[nH]2)nnc1-c1cnccn1 | -15% | x
Cc1ccc(F)c(S(=O)(=O)NC(=O)C2(C)CCN2C(=O)c2sccc2C)c1 (stereo not drawn) | 7% | i
CCOc1ccc(C(=O)NC2CC(=O)N(c3ccc4c(c3)OCCO4)C2)cc1 (stereo not drawn) | -14% | i
Cc1cc(C)n(C(=O)CCCn2nc(C)c([N+](=O)[O-])c2C)n1 | -5% | i
COc1ccc(C(CCN2CCN(c3ccccc3)CC2)c2c(O)cc(OC)cc2OC)cc1 (stereo not drawn) | -13% | u
COc1cc(NC(=O)NCCn2nnc3cc(S(=O)(=O)N(C)C)ccc32)cc(OC)c1 | 1% | 10%
COc1ccc(C2Nc3ccccc3C(=O)N2Cc2ccco2)cc1CN1C(=O)c2ccccc2C1=O (stereo not drawn) | -3%&-23%&3% | -15%&36%
COc1cc(/C=N/Nc2nc(Nc3ccccc3)nc(-n3nc(C)cc3C)n2)cc(OC)c1OC | u | u
CCc1ccc2oc(C(=O)Nc3ccc(S(N)(=O)=O)cc3)c(C)c2c1 | -2% | i
COc1cccc(N2CCN(S(=O)(=O)c3cccc4cccnc34)CC2)c1 | -7% | -16%
COc1ccc(-c2c(C)nc(N)nc2-c2ccc(OC)cc2O)cc1 | -18% | i
O=C(CCn1c(=O)c2cccn2c2cccnc21)N1CCN(c2ccccc2)CC1 | -1% | -9%
Cc1c(C(=O)NCc2cccc(Cl)c2)sc(=O)n1Cc1ccc(F)cc1 | -2% | 14%
CCOc1cccc(C(=O)Nc2c(C(=O)c3ccc(OC)cc3)oc3ccccc23)c1 | -11% | -7%
CC(Nc1nc2ncn(Cc3ccccc3)c2c(=O)[nH]1)C(=O)O (stereo not drawn) | -1% | -5%
CC(C)CN(C(=O)Cn1nnc(-c2ccc(F)cc2)n1)C1CCS(=O)(=O)C1 (stereo not drawn) | -4% | -13%
COc1ccc(-c2sc(N)nc2-c2ccccc2)cc1 | -26% | 0%
COc1cccc(CNC(=O)C2CCN(S(=O)(=O)c3ccc(-n4cnnn4)cc3)CC2)c1 | -7% | i
Cc1cc(Cl)ccc1OCC(=O)N1CCCN(C(=O)COc2ccc(Cl)cc2C)CC1 | -17% | -6%
COc1cc2c(cc1C=O)OCO2 | -7% | -10%
COCc1cc(C)nc(OCC(=O)N/N=C/c2ccccc2O)c1C#N | u | u

# The results go on:
smiles | Vaccinia Venus | VACV mCherry inh
Cc1ccccc1CSCC(=O)N1CCN(c2ccccc2)CC1 | -9% | -25%
CCOc1ccc(NC(=O)N2CCN(CC)CC2)cc1 | -3% | -5%
CC(C)c1ccc(OCC(=O)NCc2n[nH]c(=O)c3ccccc23)cc1 | -3% | -10%
COc1ccc(S(=O)(=O)N2CCN(C(=O)CNC(=O)c3ccc4c(c3)OCO4)CC2)cc1 | -10% | -22%
COCCn1c(SCC(=O)N2CCCC(C)C2)nnc1-c1ccco1 (stereo not drawn) | -3% | i
CCC(C)(C)NC(=O)C(c1ccc(OC)cc1)N(CC1CCCO1)C(=O)CCC(=O)Nc1cc(C)on1 (stereo not drawn) | -8% | -9%
O=C(CCCc1ccncc1)c1ccccc1 | -16% | i
c1ccc2ccccc2c1 | -7% | i
C[C@@H](CO)NC(=O)c1[nH]cnc1C(=O)Nc1ccc(CNC(=O)OC(C)(C)C)cc1 | -16% | i
Cc1ccc(NC(=O)CN2C(=O)N/C(=C/c3cc(C)n(-c4cccc(C(=O)O)c4)c3C)C2=O)cc1 | 3% | -14%
Cc1ccc(N2CCN(C(=O)CCc3nc4ccccc4[nH]3)CC2)c(C)c1 | u | u
Cc1ccc(C2C(C#N)=C(N)N(c3cccnc3)C3=C2C(=O)CCC3)c(C)c1 (stereo not drawn) | -14% | i
CC(Oc1ccc(F)cc1)c1nnc(SCC(=O)N(c2ccccc2)C2CCS(=O)(=O)C2)o1 (stereo not drawn) | -23% | -26%
CC(C)(C)c1ccc(C(=O)NCCn2c(N)c(C#N)c3nc4ccccc4nc32)cc1 | -17% | -10%
COc1ccc(CNC(=O)c2cc(-c3ccc(OC)c(OC)c3)nc3n[nH]c(-c4ccc(C)cc4)c23)cc1 | -23% | u
Cc1ccc(NC(=O)C2C(=O)N(C)c3ccccc32)cc1 (stereo not drawn) | -3% | i
Cc1c(Cl)cccc1NC(=S)NCC1COc2ccccc2O1 (stereo not drawn) | -4% | -2%
Cn1cnnc1SCc1ccccc1Br | -18% | x
CCCCc1cc2c(cc1NC(=O)CN1CCCCC1)OCCO2 | -15% | -10%
COC(=O)c1c(NC(=O)c2ccco2)sc2c1CCC2 | -8% | x
O=C(COc1ccccc1)NC(=S)Nc1ccc2c(c1)Cc1ccccc1-2 | -19% | -12%
FCCCOc1ccc(/C=N/OCc2c(Cl)cccc2Cl)cc1 | -4% | x
CC(C)(C)OC(=O)n1cc(C(=O)c2ccccc2O)cn1 | -6% | -22%
Cn1c(NC2CCCCC2)c(N=O)c(=O)n(C)c1=O | -1% | -4%
O=Cc1c(N2CCN(c3ccccc3)CC2)nc2ccccn2c1=O | -13% | 0%
Cc1cccnc1NC(=O)c1cccc(S(=O)(=O)NCc2ccccc2)c1 | 4% | -16%
Cn1c2ccccc2c(=O)c2cc(C#Cc3ccccn3)ccc21 | -6% | 24%
CSCCC(c1nnnn1-c1c(C)cccc1C)N1CCN(C/C=C/c2ccccc2)CC1 (stereo not drawn) | -18% | i
COC(=O)c1ccc(NC(=S)NC2CC2)cc1 | -16% | i
COc1ccc(OC(=O)Nc2ccc([N+](=O)[O-])cc2OC)cc1 | 6% | i
COC(=O)c1sc(N)c(C(=O)OC)c1COC(=O)CNS(=O)(=O)c1cccc(C#N)c1 | -15% | -18%
O=C(COc1ccc(Br)cc1)Nc1ccc([N+](=O)[O-])cn1 | -10% | x
COCCNC(=O)C(c1ccco1)N(Cc1ccc(OC)cc1)C(=O)Cn1nnc2ccccc21 (stereo not drawn) | 7% | -4%
C#CCOCCOCCOCCNc1nc(N2CCN(C(=O)CCCCCCCCCCNC(=O)[C@H](CCCCN)n3cc(C[C@@H](C)CC)nn3)CC2)nc(N2CCN(C(=O)CCCCCCCCCCNC(=O)[C@H](CCCCN)n3cc(C[C@@H](C)CC)nn3)CC2)n1 | 11µM* | u
CCC(=O)c1ccc(OCC(=O)OCC(=O)c2cc(C)n(CC3CCCO3)c2C)cc1 (stereo not drawn) | -5% | -9%
CCCCn1cc2c(c1-c1ccc(Cl)cc1)c(=O)n(C)c(=O)n2C | -13% | -11%
CCOC(=O)C1CCCN(C(=O)c2cc3ccccc3cc2OC)C1 (stereo not drawn) | -10% | -25%
COCCNc1nc2c(S(=O)(=O)c3ccccc3)nnn2c2ccc(Cl)cc12 | -21% | -27%
C=C1C=C(C(F)F)n2ncc(C(=O)NCc3ccccc3F)c2N1 | -17% | 4%
O=C(Nc1cccc(C(=O)O)c1)/C(=C\c1ccccc1)NC(=O)c1ccccc1Cl | -9% | -12%
CCOc1cc(C#N)c(NC(=O)c2ccc(OC)c(S(=O)(=O)N3CCN(c4ccccc4)CC3)c2)cc1OCC | -1% | 9%
Cc1cc(N(CCO)CCO)ccc1C(c1ccc(N(CCO)CCO)cc1C)c1ccccc1Cl | u | u
CCCNC(=O)NC(=O)COc1ccc(-c2ccc(C#N)cc2)cc1 | -16% | i
O=c1c2cnn(-c3ccccc3)c2ncn1Cc1ccccc1F | -16% | i
COc1ccc(S(=O)(=O)NC(CC(=O)NC2CCCC2)c2ccco2)cc1 (stereo not drawn) | -5% | x
Cc1c(CNC2CCC(C)CC2)c(C(=O)O)c(C)n1Cc1ccc(Cl)cc1 (stereo not drawn) | 0% | -8%
CC(C)Oc1snc(Cl)c1C(N)=O | -6% | x
COC(=O)C(Cc1ccccc1)NC(=O)c1cc(=O)[nH]c2ccccc12 (stereo not drawn) | -6% | -4%

# Ordered by formula weight (lowest first): seven of the compounds above.
smiles | Vaccinia Venus | VACV mCherry inh
CC(C)Oc1snc(Cl)c1C(N)=O | -6% | x
O=c1c2cnn(-c3ccccc3)c2ncn1Cc1ccccc1F | -16% | i
C=C1C=C(C(F)F)n2ncc(C(=O)NCc3ccccc3F)c2N1 | -17% | 4%
CCOC(=O)C1CCCN(C(=O)c2cc3ccccc3cc2OC)C1 (stereo not drawn) | -10% | -25%
O=C(COc1ccc(Br)cc1)Nc1ccc([N+](=O)[O-])cn1 | -10% | x
COc1ccc(S(=O)(=O)NC(CC(=O)NC2CCCC2)c2ccco2)cc1 (stereo not drawn) | -5% | x
COCCNc1nc2c(S(=O)(=O)c3ccccc3)nnn2c2ccc(Cl)cc12 | -21% | -27%
